Mtb H37Rv: M. tuberculosis H37Rv growth inhibitors, H37Rv strain (AID 1626) | M. tuberculosis H37Rv growth inhibition; higher % means a stronger effect | one-dose inhibition, % at 10 µM; IC50 in µM for titrated hits | 0.95% of 220,000 active;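 active means confirmed in a dose series; inconclusive means inhibition above 80% but not taken into the dose series; inactive means below 80% or under 30% at every dose of the series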;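 further: bacteria incubated seven days before Alamar blue readout; 0% = bacteria only wells and 100% = bacteria with antibiotic wells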
RecA intein inh: Mtb RecA intein splicing inhibitors, primary screen, biochemical, fluorescence, HTS. Protein RecA (Mycobacterium tuberculosis (strain ATCC 25618 / H37Rv)), P9WHJ3. cell-free RecA intein splicing. inhibition, %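 (about 9 µM by stock and volumes)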. 0.75% of 290,000 active; in the data active means inhibition above about 30%; inconclusive means no clear call, values can overlap the other calls;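 further: 0% = vehicle wells and 100% = reference inhibitor control wells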
Target sequence (P9WHJ3 whole entry, looked up): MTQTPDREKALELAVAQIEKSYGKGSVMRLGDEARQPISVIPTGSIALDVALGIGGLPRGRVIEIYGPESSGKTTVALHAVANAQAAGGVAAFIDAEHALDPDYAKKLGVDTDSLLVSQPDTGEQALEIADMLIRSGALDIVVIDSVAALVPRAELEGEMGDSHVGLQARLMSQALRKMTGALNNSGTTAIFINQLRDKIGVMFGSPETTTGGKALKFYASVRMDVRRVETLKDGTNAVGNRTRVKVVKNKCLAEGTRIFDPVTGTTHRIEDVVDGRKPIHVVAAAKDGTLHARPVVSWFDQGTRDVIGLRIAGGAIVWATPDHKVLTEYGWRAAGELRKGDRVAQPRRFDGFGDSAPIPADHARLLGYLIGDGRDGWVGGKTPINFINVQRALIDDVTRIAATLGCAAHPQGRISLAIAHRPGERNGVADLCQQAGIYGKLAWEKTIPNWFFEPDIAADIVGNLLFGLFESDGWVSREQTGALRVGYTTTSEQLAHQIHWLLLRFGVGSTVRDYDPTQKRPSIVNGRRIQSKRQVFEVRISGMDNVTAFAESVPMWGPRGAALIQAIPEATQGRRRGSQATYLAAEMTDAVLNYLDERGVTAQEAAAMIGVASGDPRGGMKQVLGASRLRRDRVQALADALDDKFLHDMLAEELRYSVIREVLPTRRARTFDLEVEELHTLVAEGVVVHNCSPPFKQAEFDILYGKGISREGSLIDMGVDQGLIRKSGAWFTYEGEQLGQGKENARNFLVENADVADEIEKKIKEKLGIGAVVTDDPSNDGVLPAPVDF
Arbovirus anti: antivirals against arbovirus infection, primary screen, cell-based, full library, 10K replicate subset. arbovirus infection cell-based antiviral screen. inhibition, % at 10 µM. 0.37% of 200,000 active;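 active means inhibition from about 30%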;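 further: bluetongue infection of BSR cells; cell survival read as ATP light after 72 h; 0% = infected wells without compound and 100% = uninfected wells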
Mtb betalactam: beta-lactam sensitization of Mtb H37Rv, H37Rv | M. tuberculosis H37Rv growth with meropenem, percent inhibition; hits of this screen are not shown here | inhibition, % at 25 µM | 0.27% of 330,000 active | AID 434955, 2010;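 active means about 74% or more and at least 40 points above the plate without the antibiotic, then above 30% in a dose series; inconclusive means first-round hits that could not be retested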;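 further: growth measured after seven days incubation then overnight dye step; 0% = bacteria only wells and 100% = bacteria with antibiotic; twin plates without the antibiotic show which effects depend on it; some results filed as inactive read as strong as hits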
YopH PTP inh: YopH tyrosine phosphatase inhibitors, primary screen, biochemical, fluorescence Ex485/Em525; YopH tyrosine phosphatase [Yersinia enterocolitica]; inhibition, %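 (about 10 µM by stock and volumes)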; 0.16% of 140,000 active;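 active means inhibition of 50% or more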;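 further: controls were vehicle for no effect and minimum signal wells for full effect; inactives centre near -20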
Arbovirus anti repeat: also measured in Arbovirus anti; calls as there; inhibition, %; measured here: 10K subset replicate screen; many hits read low in the repeat;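 first of two repeat runs on a subset; 0% = infected and 100% = uninfected wells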
An asterisk follows results filed as active; u = inconclusive; x = no result given.

SMILES	Mtb H37Rv	RecA intein inh	Arbovirus anti	Mtb betalactam	YopH PTP inh	others
O=C(Nc1ccc(Cl)cc1)Nc1nc(-c2sccc2Br)cs1	x	-1.9	-10	-5	-27
O=C(COc1ccc(F)cc1)NN1C(=O)CSC1=S	0%	-3.8	8	2	x
CCc1nc(SCC(=O)N2CCCc3ccccc32)c2oc3ccccc3c2n1	4%	-1.6	5	-15	2
O=C(N/N=C/c1cccc2ccccc12)c1ccncc1	x	1.9	x	98	x
Cc1cc([N+](=O)[O-])cnc1Sc1nccn1C	1%	-0.7	4	0	-25
O=C(N/N=C/c1ccccc1F)c1ccc(COc2ccccc2Cl)o1	12%	1.8	2	-6	-26
O=C(Nc1ccc(Cl)cc1Cl)c1ccc(Br)o1	x	2.9	x	2	x
CCn1nc(C)c(CN2CCc3c([nH]c4ccccc34)C2C(C)(C)C)c1C (stereo not drawn)	8%	-3.9	13	-3	x
CCN1C(=O)[C@H]2[C@@H](c3ccc(C)cc3)N3C(=O)N(c4cccc(C)c4)C(=O)[C@@]3(Cc3ccccc3)[C@H]2C1=O	x	0.6	x	-11	x
CC(OC(=O)c1cc(-c2cccnc2)nc2ccccc12)C(=O)Nc1ccc2ccccc2c1 (stereo not drawn)	5%	-0.6	-10	7	-17
CCOC(=O)c1[nH]c(C)c(C(=O)NCCN2CCOCC2)c1C	0%	1.0	7	-2	x	Arbovirus anti repeat=4
CC(=O)c1cccc(NC(=O)C(C)OC(=O)CCC2CCCCC2)c1 (stereo not drawn)	x	2.0	x	0	x
Cc1sc2nc(C)n(/N=C/c3ccccc3)c(=O)c2c1C	-10%	1.9	7	-3	-15
COc1ccc(CN2C(=O)CCCc3ccccc32)cc1	3%	2.8	-17	3	x
CCC1(CC)NC(=O)N(CC(=O)OCC(=O)Nc2ccccc2[N+](=O)[O-])C1=O	-4%	-0.7	-2	-2	x
COc1ccc(C(=O)NCc2ncccc2C)cc1OC1CCN(C(C)=O)CC1	x	0.2	x	u	x
CC(NC(=O)Cc1ccc(NS(=O)(=O)c2cccc(C(F)(F)F)c2)cc1)c1ccccn1 (stereo not drawn)	x	0.4	x	-3	x
Cc1ccc(C(=O)n2cnnc2N)cc1C	-3%	15	2	7	-4
Cc1cc(=O)oc(C)c1C(=O)NCC1COc2ccccc2O1 (stereo not drawn)	-5%	-2.5	2	-14	-8
O=C(CNC(=O)c1ccccc1)OCC(=O)N1N=C(c2ccc(Cl)cc2)CC1c1ccco1 (stereo not drawn)	3%	1.0	-6	1	x
Nc1nc(-c2ccco2)nn1S(=O)(=O)c1ccc(Cl)cc1	1%	x	-1	-8	x
COc1cccc(Cn2nnc(C(=O)Nc3cc(Cl)ccc3OC)c2N)c1	-7%	4.7	-32	0	-4
Cc1cccc(C)c1NC(=O)CNC(=O)Cc1ccc(Br)cc1	4%	4.0	3	2	x
CCOC(=O)c1cnc(SCC(=O)Nc2ccc(N3CCOCC3)cc2)nc1N	x	5.7	8	x	-18
N#C/C(=C\c1ccc[nH]1)C(=O)Nc1ccccc1Cl	x	-3.7	x	-12	x

An excerpt from above in order of molar mass, ascending:
SMILES	Mtb H37Rv	RecA intein inh	Arbovirus anti	Mtb betalactam	YopH PTP inh	others
Cc1ccc(C(=O)n2cnnc2N)cc1C	-3%	15	2	7	-4
N#C/C(=C\c1ccc[nH]1)C(=O)Nc1ccccc1Cl	x	-3.7	x	-12	x
COc1ccc(CN2C(=O)CCCc3ccccc32)cc1	3%	2.8	-17	3	x
CCOC(=O)c1cnc(SCC(=O)Nc2ccc(N3CCOCC3)cc2)nc1N	x	5.7	8	x	-18

(more compounds)
SMILES	Mtb H37Rv	RecA intein inh	Arbovirus anti	Mtb betalactam	YopH PTP inh	others
CC1CCN(c2ccc(/C=C(\C#N)c3nn(-c4ccccc4)c(N)c3C#N)cc2[N+](=O)[O-])CC1	23%	3.7	-2	39	-43
CC(C)(C)SCCNC(=O)CN(c1ccc(F)cc1)S(C)(=O)=O	-2%	x	2	1	-32
CC1CCN(C(=O)C2CCN(CCCc3ccccc3)CC2)CC1	-1%	1.3	4	-12	-13
COc1ccc(-n2nc(C(=O)NCC(=O)NCCC3=CCCCC3)c3ccccc3c2=O)c(OC)c1	x	16	x	-10	x
CCN(CC)c1ccc(NC(=O)CCNS(=O)(=O)c2ccc3c(c2)CCC(=O)N3)c(C)c1	x	-4.9	x	1	x
COc1cc(S(=O)(=O)NCC2COCCO2)ccc1-n1cnnn1 (stereo not drawn)	-11%	1.2	2	3	-53
Cc1ccc(S(=O)(=O)N2CCOCC2)cc1NC(=O)COC(=O)c1ccc(OCc2c(C)noc2C)cc1	-8%	-2.3	2	6	-19
COc1ccc(N2CC(O)=C(c3nc(C)cs3)C2=N)cc1	-5%	-0.2	15	-3	-47	Arbovirus anti repeat=2
O=S(=O)(c1ccccc1F)N1CCN(C(=S)NCc2ccccc2)CC1	-2%	5.1	9	2	x
Cc1ccc(CNC(=O)CCc2nc3ccccc3c(=O)[nH]2)cc1	-6%	x	-9	-8	-27
O=C(O)CCSc1nnc(-c2cccnc2)n1-c1ccccc1	-6%	-2.5	5	-7	-31
COc1ccc(NC(=S)NCc2ccccc2Cl)c(OC)c1	x	-2.1	x	8	x
COc1cc(C(=O)Oc2cccc(Nc3ncnc4ccccc34)c2)cc(OC)c1OC	-6%	0.8	-3	9	-36
COc1ccc(CC(=O)Nc2ccc(NC(=O)c3ccccc3F)cc2)cc1	-6%	-2.6	-9	-4	x
O=C(/C=C/Nc1ccc(S(=O)(=O)Nc2ncccn2)cc1)c1ccc2ccccc2c1	-11%	-1.1	x	0	x
Cc1ccccc1NC1c2ccccc2C(=O)N1Cc1ccco1 (stereo not drawn)	4%	6.1	-7	7	1
COCCCNC(=S)Nc1cc2oc3ccccc3c2cc1OC	x	0.2	x	16	x
Cc1[nH][nH]c(=O)c1[C@@H](c1ccccc1[N+](=O)[O-])C(C#N)C#N	-12%	62*	x	-6	x
COc1cc2ncnc(NCc3cccs3)c2cc1OC	12%	-1.7	5	-2	x
COC(=O)c1sccc1NC(=S)Nc1cc(C)ccc1OC	4%	-2.7	2	-4	x
NC(=O)COc1ccc(NC(=O)c2ccccc2-c2ccccc2)cc1	4%	3.8	-1	-1	x
CCc1[nH]nc(C(=O)NC2CCCN(Cc3ccccc3F)C2)c1C (stereo not drawn)	x	1.4	x	1	x
CCNC(=O)c1c(N)sc2c1CCCCC2	-8%	0.3	1	-10	-35	Arbovirus anti repeat=2
COc1ccc(-c2cc(-c3nnc(COC(=O)C4CC4)o3)c3ccccc3n2)cc1OC	50%	-19	4	70	16
Cn1ncc(Br)c1C(=O)N1CCc2ccccc21	2%	-1.4	0	12	-20
Continuation.
SMILES	Mtb H37Rv	RecA intein inh	Arbovirus anti	Mtb betalactam	YopH PTP inh	others
Cc1nnc2ccc(-c3cccc(NC(=O)c4ccco4)c3)nn12	-14%	-0.1	1	2	x
O=C(Cc1csc(NC(=O)Nc2cccc(Cl)c2)n1)NCc1ccccn1	x	1.7	x	90	x
Cc1ccc(C(=O)NCCCNC(=O)Cc2ccccc2)cn1	x	-2.4	x	1	x
COCCNC(=S)N1CCN(C(=O)C(=O)Nc2ccc(C(=O)OC)cc2)CC1	2%	-5.6	0	-1	-24
Cc1sc2nc[nH]c(=O)c2c1-c1ccc(Cl)cc1	x	0.0	x	3	x
O=C(CCc1nc(-c2ccccc2F)no1)NCCN1CCN(Cc2ccccc2)CC1	3%	0.8	-4	0	-7
COc1ccc2cc(C(=O)C3CCCN(C(=O)c4cnccn4)C3)ccc2c1 (stereo not drawn)	16%	-1.2	x	-9	x
COC(=O)c1ccc(NC(=O)CC2C(=O)N(C)C(=S)N2Cc2ccc(S(N)(=O)=O)cc2)cc1 (stereo not drawn)	10%	-0.2	x	-2	x
COc1cc(C(F)(F)F)c(C(=O)NCc2cccc(Cl)c2)cn1	-1%	0.7	x	-8	x
O=c1c(Cc2ccccc2)c(O)nc2n1CCS2	-3%	-0.7	6	23	-39
O=C(Cn1ncn2c(cc3ccccc32)c1=O)NCCc1cccs1	x	-0.4	x	9	x
CCC(C)(C)n1nnnc1C(C(C)C)N1CCC(C(N)=O)CC1 (stereo not drawn)	-2%	14	1	-2	-28
COc1ccc(-c2nc(N)n(C(=O)c3ccccc3Cl)n2)cc1	4%	4.6	-3	5	-17
O=C(NCCCn1ccnc1)C1CC(c2ccccc2Cl)=NO1 (stereo not drawn)	11%	-0.3	x	-1	x
CCC(C)C(NC(=O)c1ccccc1NC(=O)c1ccc(C)cc1)C(=O)O (stereo not drawn)	6%	-1.6	9	3	x
CCSC(=O)NC12CC3CC(CC(C3)C1)C2	-5%	x	10	-3	1
COc1ccc(C(=O)NNC(=O)COc2ccc(Cl)cc2)c(OC)c1	x	1.3	x	-5	x
O=C(NCC(c1ccco1)N1CCc2ccccc2C1)c1ccc(Cl)cc1 (stereo not drawn)	x	7.9	x	-1	x
CCCCCCN(C(=O)CCCCCN1C(=O)NC(c2cccc([N+](=O)[O-])c2)C(C(=O)OCc2ccccc2)=C1C)C(C(=O)NCCCC)c1ccc(OCC(=O)OC)c(C(=O)OC)c1 (stereo not drawn)	x	1.2	x	-14	x
CCc1nnc(NC(=O)CSc2nnc(Cc3cc(=O)[nH]c(=O)[nH]3)n2-c2ccc(OC)cc2)s1	0%	3.2	10	-1	x
CC(=O)c1c[nH]c2ccc(C)cc2c1=O	2%	-1.6	-3	2	-17
Cc1ccc(-n2c(C(C)n3nc(C)c([N+](=O)[O-])c3C)n[nH]c2=S)cc1 (stereo not drawn)	3%	0.3	9	2	-11
O=C(Cn1ccccc1=O)c1cccs1	-7%	0.6	6	1	-27
CC(C)[C@H](NC(=O)OC(C)(C)C)c1nnc(S(=O)(=O)Cc2c(F)cccc2Cl)o1	1%	56*	x	17	x
CCCCc1cc(=O)oc2c(CN3CCCC3)c(O)ccc12	0%	-52	4	-6	-31

Pulled by compound from the list above (three):
SMILES	Mtb H37Rv	RecA intein inh	Arbovirus anti	Mtb betalactam	YopH PTP inh	others
O=C(Cn1ccccc1=O)c1cccs1	-7%	0.6	6	1	-27
CCCCCCN(C(=O)CCCCCN1C(=O)NC(c2cccc([N+](=O)[O-])c2)C(C(=O)OCc2ccccc2)=C1C)C(C(=O)NCCCC)c1ccc(OCC(=O)OC)c(C(=O)OC)c1 (stereo not drawn)	x	1.2	x	-14	x
COc1cccc(Cn2nnc(C(=O)Nc3cc(Cl)ccc3OC)c2N)c1	-7%	4.7	-32	0	-4

Next section:
SMILES	Mtb H37Rv	RecA intein inh	Arbovirus anti	Mtb betalactam	YopH PTP inh	others
CSc1ccc(/C=C/C(=O)c2ccc(O)cc2)cc1	9.9µM*	14	-19	98	-21
COC(=O)C(NC(C)=O)(Nc1ccccn1)C(F)(F)F (stereo not drawn)	-14%	0.3	1	-24	14
O=C(/C=C/c1ccc(F)cc1)N1CCN(c2ncccn2)CC1	3%	1.2	4	-11	x
CCCCN(C(=O)CN1CCOCC1)c1c(N)n(CC(C)C)c(=O)[nH]c1=O	-5%	-0.3	-4	-3	-6
Cn1c(N)c(S(=O)(=O)NCc2ccc(Cl)cc2)c(=O)n(C)c1=O	9%	x	5	9	x
CC(/C=C/c1ccc(OCc2ccccc2)cc1)=N\O	11%	0.9	-8	1	-33
COC(=O)c1sc(=S)n(-c2cccc(Cl)c2)c1N	4%	-4.7	-5	2	-27
COc1ccc(C(=O)Nc2ccccc2C(=O)NC(Cc2c[nH]c3ccccc23)C(=O)O)cc1 (stereo not drawn)	0%	2.8	8	-6	x
CCN(CC)c1ccc(C=NCCNS(=O)(=O)c2ccc(C)cc2)cc1	x	0.4	x	-8	x
O=C(CCNC(=O)Cn1ccc2ccccc2c1=O)NCCN1CCN(c2cccc(Cl)c2)CC1	-6%	0.0	9	-4	-20
Cc1ccc(NC(=O)COC(=O)c2ccc3c(c2)OCO3)c(C)c1	-4%	-1.8	x	-4	x
NC(=O)NC1NC(=O)NC1=O (stereo not drawn)	-6%	-0.6	x	-4	x
Cc1cc(C)nc(N2CCC(C(=O)NNC(=O)c3ccccc3)CC2)n1	x	0.1	x	6	x
CCOc1cc2c(C#N)c(N3CCCCC3)nc(N)c2c(N)n1	3%	-1.7	-3	92	-16
CCn1c(SCC(=O)NCc2ccccc2)nnc1-c1ccccc1O	-6%	0.3	-3	1	-21
CCCCCCC1CCC(c2nc(-c3ccncc3)no2)CC1 (stereo not drawn)	10%	16	21	-3	0
CCN(CC)CCn1cnc2c1c(=O)n(CCOC(=O)c1cc(OC)c(OC)c(OC)c1)c(=O)n2C	-5%	1.4	x	-4	x
CCN(CC)c1ccc(N=C2C(=O)Nc3ccccc32)cc1	x	13	x	6	x
CCN(CC(=O)NCc1ccc(F)cc1)C(=O)COc1ccc(C)c(C)c1	5%	-2.7	2	1	-8

Not all compounds are listed; rates above refer to the full screens.
